# VACV Venus inh = qHTS for Stage-Specific Inhibitors of Vaccinia Orthopoxvirus: Venus Reporter Primary qHTS. Vaccinia virus Venus reporter expression, fluorescence. Potency, µM (highest dose often 36.5 µM), inactives show at the highest dose activity change, negative = inhibition, actives largely listed as inhibitors. actives 0.46% (n = 330,000). AID 720580, 2013; active means well fitted inhibition curve with a large enough effect; inconclusive means small, poorly fitted or top-dose-only effect; inactive means no such curve, though single readings can be large or run the other way; tested in A549 cells; further: nearly all actives have a fitted effect of over 30% in size; inactives centre near -10
# Vaccinia mCherry = qHTS for Stage-Specific Inhibitors of Vaccinia Orthopoxvirus: mCherry Reporter Primary qHTS; Vaccinia virus mCherry reporter infection, fluorescence; about a quarter of the inactives have no number; Potency, µM (titrated, usually from 36.5 µM), without a hit: at the highest dose activity change, negative = inhibition, hits mostly inhibitors; actives 0.63% (n = 310,000); AID 720579, 2013; active = well fitted inhibition curve with a large enough effect; inconclusive = small, poorly fitted or top-dose-only effect; inactive = no such curve, though single readings can be large or run the other way; tested in A549 cells; further: nearly all actives have a fitted effect of over 35% in size; inactives centre near -10
# * hit, by the source's call; i = inactive; u = inconclusive; x = no result given; & = joins results of further samples; [ ] = another dose, or the depositor's remark. On the % scale 0 is the no-effect control and ±100 the full control effect; potency means the concentration at half of the fitted maximal effect.
# Second line of a record: VACV Venus inh | Vaccinia mCherry
> O=C(NNC(=O)c1ccccc1O)c1ccc(Br)cc1
→ 0% | -30%
> O=C(OCC(=O)N1CCN(C(=O)COC(=O)c2ccc(O)cc2O)CC1)c1ccc(O)cc1O
→ -16% | -4%
> O=C1N[C@H](Cc2ccccc2)COC(=O)[C@H](Cc2ccc(F)cc2)CC/C=C/C[C@@H]1CC(=O)N(CCO)Cc1ccccc1
→ u | 28µM*
> CC(=O)N(C(C)=O)c1c(C#N)c(C)n(-c2ccccc2)c1C(=O)c1ccccc1
→ u | x
> CCC(C)NC(=O)Nc1ccc(Br)cc1 (centres undefined)
→ -15% | i
> COc1ccc(-c2cn3c(n2)sc2cc(C(=O)NC4CCCCCC4)ccc23)cc1
→ 3% | 2%
> O=C(O)CCc1ncc(C(F)(F)F)cc1Cl
→ -4% | -3%
> CN1CC=C2C(C#N)=C(N)C(C#N)(C#N)[C@H](c3cccs3)[C@H]2C1
→ 31%[activator] | -4%
> O=C(CSc1nnc(-c2cccs2)o1)Oc1ccccc1
→ -13% | -10%
> S=c1[nH]nc(-c2cccnc2)n1/N=C/c1ccc(Br)s1
→ -1% | -11%

# Quoted at random: 2 records from the list
# Second line of a record: VACV Venus inh | Vaccinia mCherry
> CCC(C)NC(=O)Nc1ccc(Br)cc1 (centres undefined)
→ -15% | i
> O=C(O)CCc1ncc(C(F)(F)F)cc1Cl
→ -4% | -3%

# Carrying on:
# Second line of a record: VACV Venus inh | Vaccinia mCherry
> Cc1nnc(SCC(=O)c2cc(C)n(-c3ccc4c(c3)OCO4)c2C)s1
→ -4% | -9%
> O=C(CCn1cnnn1)Nc1ccccc1
→ 4%&-8% | -5%
> CCOC(=O)C1CCCN(C(=O)c2ccccc2NS(=O)(=O)c2ccc(F)cc2)C1 (centres undefined)
→ 1% | i
> Nc1ncnc2c1cnn2C1CC(O)C(CO)O1 (centres undefined)
→ 6% | i
> Cn1c(=O)c2c(nc(Br)n2CCCc2ccccc2)n(C)c1=O
→ -11% | x
> CN(C(=S)NC1CCCCC1)C1(c2ccccc2Cl)CCCCC1=O (centres undefined)
→ -22% | -22%
> O=C(COC(=O)c1cc2ccccc2cc1O)NC1CCCCC1
→ -13% | -11%
> COc1ccc(CNC(=O)CN(Cc2ccc(C)cc2)C(=O)c2csnn2)cc1
→ -10% | -14%
> CC1(C)NC(=O)N(CCCCOc2ccc(Cl)cc2C=O)C1=O
→ -22% | -5%
> CC1CC[C@]2(NC1)OC1CC3C4CC=C5CC(O)CC[C@@]5(C)C4CC[C@]3(C)C1C2C (some centres undefined)
→ -27% | i
> Cc1ccc(/C=N/NC(=O)CSc2nc3ccccc3o2)cc1
→ -1% | i
> CCN(CC(=O)Nc1ccc(NC(C)=O)cc1)C(=O)c1ccc(S(=O)(=O)N2CCCC2)cc1
→ -13% | -6%
> Fc1ccc(N=c2ssnc2Cl)c(F)c1
→ -7% | -4%
> CCN(C(=O)c1cccc(Br)c1)C1CCS(=O)(=O)C1 (centres undefined)
→ 1% | -11%
> Clc1cccc(Cl)c1CN1CCN(c2ccccc2)CC1
→ -14% | i
> C#CCNC(=O)C1=C[C@H](c2ccc3c(c2)OCO3)C[C@H](OCc2ccc(CO)cc2)O1
→ -9% | i
> O=C(NCCC1CCCCN1S(=O)(=O)c1ccc(F)cc1)C(=O)Nc1ccccc1F (centres undefined)
→ -3% | -11%
> COc1ccc(-c2noc(CSc3nc4ccccc4[nH]3)n2)cc1
→ -17% | -14%
> CCOC(=O)CC1C(=O)NCCN1C(=O)c1c(F)cccc1F (centres undefined)
→ -2% | -4%
> CC(N)(C(=O)O)c1ccc(C(=O)O)cc1 (centres undefined)
→ -17% | i
> COc1cccc(-n2c(-c3ccccc3)c[nH]c2=S)c1
→ 10% | u
> COc1ccccc1CNC(=O)c1cccn1-c1nnc(N2CCCCC2)s1
→ -9% | -14%
> COc1ccc(CC(N)c2csc(Nc3cc(NCCCO)ncn3)n2)cc1 (centres undefined)
→ -18% | -23%
> CO/N=C/C(C#N)=C/c1cc(C(=O)c2ccccc2)cn1C
→ -9% | -20%
> COc1ccc(-n2c3c(cc(-c4nc(-c5ccc(C)cc5)cs4)c2=O)C(=O)CC(C)(C)C3)cc1
→ 8% | 3%
> C[C@@H]1CN(Cc2ccc3c(c2)CN(Cc2cccn2-c2ccccn2)CCO3)C[C@H](C)O1
→ 5% | -9%
> Cc1cc(OCCn2cc(C(=O)c3ccco3)c3ccccc32)ccc1Cl
→ -8% | 3%
> CS(=O)(=O)N1CCC(C(=O)Nc2ccc(OCc3ccccc3)cc2)CC1
→ -10% | -12%
> Cc1cc(C)c(-c2c(N)cc(Br)cc2Br)c(N)c1
→ -12% | 13µM*
> Cc1ccccc1CNC(=O)CCNS(=O)(=O)c1ccc(OC(F)(F)F)cc1
→ -7% | -12%
> O=C(O)c1cc(=O)c2c(OCC(O)COc3cccc4oc(C(=O)O)cc(=O)c34)cccc2o1
→ -10%&-11% | -12%
> CCN(CC)CCCNc1nc(-c2ccccc2)nc2ccccc12
→ u | i
> CCCC1(C)NC(=O)c2ccccc2O1 (centres undefined)
→ 0% | i
> Cc1ccc(CS(=O)(=O)CCC(=O)NCCCOC(C)C)cc1
→ -6% | -20%
> CC(C)c1ccc2oc(=O)cc(CN3CCCCC3)c2c1
→ -3% | i
> C/C=C(/C)C(=O)Nc1cccc(C2=NOC3(C2)C[C@@H](C(N)=O)N(C(=O)/C=C/CC)C3)c1 (some centres undefined)
→ -9% | i
> O=C(/C=C/c1cccc([N+](=O)[O-])c1)NC(=S)Nc1cccc(NC(=O)c2ccccc2Cl)c1
→ -22% | -23%
> CCOC(=O)C1=C(C)OC(N)=C(C#N)C1c1cc(Cl)c(OCC(N)=O)c(OC)c1 (centres undefined)
→ -8% | -11%
> COC(=O)C1C(O)=CC(=O)CC1C (centres undefined)
→ 0% | -6%
> Cc1cccc(CCNC(=O)CCS(=O)(=O)c2ccc(Br)cc2)c1
→ -24% | -7%
> Cc1ccc(NC(=O)Cn2nc(C(=O)O)c3ccccc3c2=O)c([N+](=O)[O-])c1
→ -14% | -14%
> CC(C)C[C@@H](CN1CCCC1CN1C(=S)NC[C@@H]1Cc1ccccc1)N1C[C@H](Cc2ccc(O)cc2)N(CCc2ccccc2)C1=S (some centres undefined)
→ -22% | -27%
> Cc1c(C(=O)OC2CCCCC2)[nH]c2c1C(=O)CC(c1ccc(F)cc1)C2 (centres undefined)
→ -16%[7.34 µM] | -17%[7.34 µM]
> CN(Cc1ccccc1)C(=O)CCC1CCN(C(=O)CCC(F)(F)F)CC1
→ -13% | -21%
> CCCCc1nn2c(=O)cc(COC(=O)c3ccc(NC(=O)C(CC)CC)cc3)nc2s1
→ -24% | -11%
> O=C(O)C[C@H]1c2cc(C(F)(F)F)ccc2S(=O)(=O)N1C1CCCCC1
→ -3%&-12% | -8%
> COc1ccc(NS(=O)(=O)c2cc(C)ccc2OC)cc1OC
→ -23% | x
> CN(C)CCCOc1nc2c(c(=O)n(C)c(=O)n2C)n1C
→ 11% | 6%
> Fc1ccc(NC(=S)N2CCCC(c3ccccc3)=N2)cc1
→ -9%[7.34 µM] | -13%[7.34 µM]
> COCCN(C(=O)COC(=O)c1cc2ccccc2cc1O)c1c(N)n(Cc2ccccc2)c(=O)[nH]c1=O
→ -16% | -6%

# Remaining list, next part.
# Second line of a record: VACV Venus inh | Vaccinia mCherry
> Cc1ccc2cc(CN(CCN3CCOCC3)C(=O)NCc3ccccc3)c(=O)[nH]c2c1C
→ 5% | 0%
> CCOC(=O)C1Oc2ccccc2C(c2cccc3ccccc23)=C1C(=O)OC (centres undefined)
→ -1% | u
> COc1cc(OC)cc(-c2cc3nc(C)c(CCC(=O)O)c(=O)n3[nH]2)c1
→ -6% | i
> O=C(Nc1ccccc1N1CCOCC1)c1ccc(Cl)c(S(=O)(=O)NCc2ccco2)c1
→ -15% | -3%
> CCCCCCCNC(=O)C1(CC2CC(c3cccc(Br)c3)=NO2)CCN(C(=O)OC(C)(C)C)CC1 (centres undefined)
→ -9% | -4%
> Cn1c(=O)c2[nH]c(N=NN3CCCCC3)nc2n(C)c1=O
→ -1% | i
> O=C(NN=Cc1ccc2c(c1)CCC2)c1cccc([N+](=O)[O-])c1
→ u | u
> Cc1c(NC(=O)c2coc(=O)c(Br)c2)c(=O)n(-c2ccccc2)n1C
→ -14% | -9%[1.46 µM]
> C=CCn1c(Cc2csc(N)n2)nnc1SCc1ccc(C(=O)OC)cc1
→ -11% | -17%
> COc1cc(OC)c(/C=C/c2ccc3ccccc3[n+]2C)c(OC)c1
→ -27% | u

# Remaining list, next part:
compound | VACV Venus inh | Vaccinia mCherry
C[C@@H]1CN(Cc2ccc3c(c2)CN(Cc2cccc(O)c2)CCO3)C[C@H](C)O1 | -2% | -3%
Cn1cccc1C(=O)N1CCc2ccccc2C1 | 7% | 0%
Cc1ccc(SCC(=O)NNC(=O)CNC(=O)c2ccccc2F)cc1 | -4% | i
CCCC(=O)Nc1ccc(C(=O)N/N=C/c2ccc[nH]2)cc1 | -28% | -30%
CCN(CC)c1ccc(CNc2nc3ccccc3n2CCN2CCOCC2)cc1 | -19% | -21%
COc1cc(Cl)c(C)cc1NC(=O)c1cc2c(Cl)nc3ccc(C)cc3c2s1 | -10%[7.34 µM] | -4%[7.34 µM]
CC(C)C[C@H](NC(=O)c1nc[nH]c1C(=O)NCCCCCNC(=O)OC(C)(C)C)C(=O)OC(C)(C)C | u | i
CCc1nc2c(OCCC3CCCCC3)cccn2c1N(C)C(=O)CC(C)C | -16% | -24%
O=C(NC(=O)c1ccccc1)Nc1ccc(-c2cc(C(F)(F)F)nn2-c2ccccc2)cc1 | -5% | -12%
COC(=O)CC(=O)CSc1nc2c(cc1C#N)CCC2 | -16% | -25%
O=C(Nc1ccc(N2CCOCC2)cc1)c1cn2ccccc2n1 | 1% | -20%[1.46 µM]
OCC1(Cc2ccccc2C(F)(F)F)CCN(Cc2cccc3cnccc23)CC1 | -14% | -27%
COc1cccc(C(=O)N2CCC(C(=O)NCc3ccco3)CC2)c1 | -3% | -5%
Fc1ccc(NC2=NCCS2)cc1Cl | -3% | -12%
Cc1cc(Nc2cccc(C(=O)O)c2)n2nc(C)nc2n1 | 0% | -8%
Cc1nn(C)c(C)c1S(=O)(=O)N(CC(=O)N1CCc2ccccc21)c1ccc(C(C)C)cc1 | -28% | -6%
CCC(=O)Nc1ccccc1 | 3% | 8%
NC(=O)c1c(NC(=O)c2ccccc2)sc2c1CCC2 | -18% | -4%
Cc1c(NC(=O)C(C)OC(=O)/C=C/c2ccc3c(c2)OCO3)c(=O)n(-c2ccccc2)n1C (centres undefined) | -16% | i
COc1ccc(-c2csc3nc(C)n(-n4cccc4)c(=O)c23)cc1 | -19% | x
O=S1(=O)CC(N2CCCCC2)C(N2CCCCC2)C1 (centres undefined) | -8% | -12%
Cc1sc2ncnc(SCC(=O)NC3CC3)c2c1C | -21% | -3%
COc1cc(/C=C/C(=O)OCC(=O)N2CCCCCC2)ccc1OCC#N | -19% | -21%
CCOc1ccccc1NC(=O)c1cc(C(=O)c2cc(Br)ccc2O)coc1=N | -16% | -7%
Nc1nnc(CC(=O)N/N=C/c2ccc(-c3ccc(F)cc3)o2)s1 | -14% | -21%
CCOC(=O)[C@H]1[C@H]2COc3ccc(Cl)cc3[C@@H]2N2C(=O)c3cc(Cl)ccc3NC(=O)[C@@]12C | -27% | i
COCCCn1c(SCC(=O)c2c(N)n(C3CC3)c(=O)[nH]c2=O)nnc1-c1ccccc1Cl | 3% | i
CNC(=O)c1[nH]cnc1C(=O)N[C@@H](C)C(=O)OC(C)(C)C | -7% | i
O=[N+]([O-])c1cc([N+](=O)[O-])c(Oc2c(F)ccc(F)c2F)cc1NN1CCCCC1 | -21% | -2%
Cc1ccn(C(=O)c2ccc(NC(=O)C3CC3)cc2)n1 | -8% | -3%
CN1CCN(c2ccc([N+](=O)[O-])cc2Cl)CC1 | -10% | u
c1ccc(Nc2nnc(-c3cccc4ccccc34)o2)cc1 | 9%[7.34 µM] | -11%[7.34 µM]
COc1ccc(C(O)c2nc(-c3ccoc3)cs2)cc1 (centres undefined) | 4% | 39%[activator]
O=C(c1cccc(NS(=O)(=O)c2ccc(Br)cc2)c1)N1CCN(c2ccccc2O)CC1 | -14% | -33%
Cc1ccc(C)c(NC(=O)CN(C)C(=O)CSC(C)C(=O)Nc2cc(C)on2)c1 (centres undefined) | -18% | -7%
COc1cccc(CNC(=O)COC(=O)c2cc([N+](=O)[O-])ccc2N2CCCC2)c1 | -16% | u
O=C1Nc2c(c(=O)[nH]c(=O)n2-c2ccccc2)C(C(F)(F)F)(C(F)(F)F)N1 | -13% | i

# In the list so far, these have a tert-butyl group.
compound | VACV Venus inh | Vaccinia mCherry
CCCCCCCNC(=O)C1(CC2CC(c3cccc(Br)c3)=NO2)CCN(C(=O)OC(C)(C)C)CC1 (centres undefined) | -9% | -4%
CC(C)C[C@H](NC(=O)c1nc[nH]c1C(=O)NCCCCCNC(=O)OC(C)(C)C)C(=O)OC(C)(C)C | u | i
CNC(=O)c1[nH]cnc1C(=O)N[C@@H](C)C(=O)OC(C)(C)C | -7% | i

# Record cards, from the list above.
# CCOC(=O)CC1C(=O)NCCN1C(=O)c1c(F)cccc1F (centres undefined) reads VACV Venus inh = -2%; Vaccinia mCherry = -4%
# C[C@@H]1CN(Cc2ccc3c(c2)CN(Cc2cccn2-c2ccccn2)CCO3)C[C@H](C)O1 reads VACV Venus inh = 5%; Vaccinia mCherry = -9%
# COC(=O)CC(=O)CSc1nc2c(cc1C#N)CCC2 reads VACV Venus inh = -16%; Vaccinia mCherry = -25%

# Compound activity: PubChem BioAssay, National Center for Advancing Translational Sciences (NCATS)
